Hsc70 ATP site – small molecules displacing fluorescent ligand from Hsc70 – biochemical, fluorescence polarization, primary screen (AID 568) | Hsc70 fluorescence polarization, probe displacement; higher % means a stronger effect; strong numbers were not always called active | one-dose displacement, % at 20 µM; IC50 in µM for titrated hits | 83,000 tested, under 10 active;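 active = displacement above 50% without optical interference and an IC50 on retest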;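 note: ATPase domain with a fluorescein-tagged ATP probe; 0% = vehicle and 100% = excess ADP; read after one hour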
MT1-MMP promoter – MT1-MMP gene expression reporter suppression – cell-based, luciferase reporter, luminescence (AID 618); MT1-MMP promoter luciferase reporter cells, luminescence; calls from a first round at 10 µM; hits with a dose series show EC50 in µM; hit rate 0.62% among 87,000;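 active = over half of the reporter light lost at 10 µM or EC50 under 50 µM; inactive = the rest and hits that failed the dose series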;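 note: actives suppress MT1-MMP promoter-driven transcription so potencies describe inhibitors; HT1080 fibrosarcoma cells; overnight exposure; toxic or luciferase-blocking compounds were not removed from the actives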
WNV protease inh – blocks West Nile virus NS2B-NS3 protease activity; P06935; WNV NS2B-NS3 protease, fluorogenic substrate Ex360/Em465; stronger effect = lower value; z-score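 (tested at a level between 10 and 100 µM)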; hit rate 0.18% among 65,000; AID 577;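 active = z-score at -3 or under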;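 note: score is relative to mean and spread of the compound wells of a plate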
Target sequence (P06935 1371-1501 limits assumed): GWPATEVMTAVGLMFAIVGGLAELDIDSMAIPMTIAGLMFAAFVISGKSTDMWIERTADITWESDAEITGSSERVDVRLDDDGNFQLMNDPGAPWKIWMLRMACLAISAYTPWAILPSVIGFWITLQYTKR
Target sequence (P06935 1502-1679 limits assumed): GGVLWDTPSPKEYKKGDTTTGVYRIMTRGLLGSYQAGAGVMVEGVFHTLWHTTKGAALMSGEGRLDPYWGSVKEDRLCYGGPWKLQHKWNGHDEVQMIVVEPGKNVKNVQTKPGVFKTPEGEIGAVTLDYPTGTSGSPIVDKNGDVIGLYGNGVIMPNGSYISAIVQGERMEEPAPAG
* marks the source's active call; other numbers are inactive results; i = inactive; / = no result given; + = active, no number. The list is partial (hit frequency here may not be typical).

SMILES	Hsc70 ATP site	MT1-MMP promoter	WNV protease inh
Cc1cccc(N(C)S(=O)(=O)c2ccc3[nH]c(=O)c(=O)[nH]c3c2)c1	-0.1%	i	-0.28
COc1cc(NS(=O)(=O)c2ccc(NC(=O)C34CC5CC(CC(C5)C3)C4)cc2)ncn1	2.4%	i	-0.57
Fc1cnc(N2CCc3ccccc32)nc1N1CCc2ccccc21	1.6%	i	/
Oc1c(Cl)cc(Cl)cc1CNc1ccc(Br)cn1	-5.3%	i	0.17
CC(C)CCSc1nc2c(c(=O)[nH]c(=O)n2C)n1CCc1ccccc1	-0.6%	i	1.1
CCOc1cccc(-c2nnc3sc(-c4ccc(C)cc4)nn23)c1	-1.2%	i	-1.1
CCOC(=O)C1=C(C)NC(SCc2cc(=O)[nH][nH]2)=C(C#N)C1c1cccs1 (stereo not given)	-2.2%	i	0.04
CCOC(=O)C1=C(Nc2ccccc2)OCC1=O	-4.8%	i	-0.09
Cn1c(-n2c(CCCN3C(=O)c4ccccc4C3=O)nc3ccccc3c2=O)nc2ccccc21	5.8%	i	-0.4
CC(=O)NC1(c2cccc(F)c2)CCN(CC(=O)NC2CCCCC2)CC1	-3.9%	i	0.03
COC(=O)CC1(c2ccccc2)C(=O)c2ccccc2C1=O	-2.3%	i	/
Cn1cccc1CNC(=O)Nc1ccccc1	1.6%	i	/
COc1cc(C)c(C(C)C)cc1S(=O)(=O)N1CCOCC1	-5.3%	i	-0.1
COc1ccc(S(=O)(=O)Cc2ccc(C(=O)N3CCOCC3)o2)cc1	1.3%	i	0.05
COc1ccccc1N1C(=O)C2CC(C)=C(C)CC2C1=O (stereo not given)	6.2%	i	0.28
O=C(CCS(=O)(=O)c1ccc(Br)cc1)N1CCN(c2ccccc2F)CC1	-8.1%	i	-0.59
OCCOCCNc1ncnc2c1cnn2-c1ccc(Cl)cc1	-5.6%	i	0.31
CC12CCC(C(=O)NCc3ccc4c(c3)OCO4)(CC1=O)C2(C)C (stereo not given)	3.1%	i	-0.41
CCOc1ccccc1NC(=O)C1CCCN1C(=O)OCc1ccccc1 (stereo not given)	-10%	i	0.04
Cc1cc(NC(=O)C2CC=CCC2C(=O)O)no1 (stereo not given)	3.9%	i	0.04
COc1ccc(-c2nc(C)sc2CC(=O)O)cc1	8.0%	i	-0.01
c1ccc(CN2CCN(c3nc(N4CCOCC4)c4ccccc4n3)CC2)cc1	3.6%	i	/
CCOn1c(=O)c(-c2cc3ccccc3o2)[n+]([O-])c2ccccc21	1.9%	i	-0.63
COc1ccc(Br)cc1C1SCCN1S(C)(=O)=O (stereo not given)	-2.0%	i	0.11

Whole records from above:
`COc1cc(C)c(C(C)C)cc1S(=O)(=O)N1CCOCC1` across the screens: Hsc70 ATP site: -5.3%; MT1-MMP promoter: i; WNV protease inh: -0.1
`Cc1cc(NC(=O)C2CC=CCC2C(=O)O)no1` (stereo not given) across the screens: Hsc70 ATP site: 3.9%; MT1-MMP promoter: i; WNV protease inh: 0.04

Remaining list, next part.
SMILES	Hsc70 ATP site	MT1-MMP promoter	WNV protease inh
CCOc1ccc(S(=O)(=O)N(C)C)cc1-c1nc2c(C(C)(C)C)nn(C)c2c(=O)[nH]1	1.3%	i	-0.05
Cc1nc(N2CCN(Cc3ccc4c(c3)OCO4)CC2)nc2c1C(=O)CC(c1ccco1)C2 (stereo not given)	-9.9%	i	-1.2
CC(C)Sc1nc2c(c(=O)n1C)SC(C)C2 (stereo not given)	3.7%	i	-1.2
CCN1C(=O)c2ccccc2S(=O)c2ccc(C(=O)N3CCCC3)cc21 (stereo not given)	3.9%	i	1.2
CCN(CC)CCCN1C(=O)C(O)=C(C(=O)c2sc(C)nc2C)C1c1ccc(C)o1 (stereo not given)	8.8%	i	-0.21
CCSc1nnc(NC(=O)C(C)(C)C)s1	-1.8%	i	-1.4
COc1ccc(Cl)cc1NC(=O)c1cnc2sccn2c1=O	0.7%	i	-1.1
CC1(C)Cc2c(c(N3CCCC3)[nH]c(=S)c2C#N)CO1	-4.0%	i	/
Cc1ccc(-c2nnn(CC(=O)NCCC3=CCCCC3)n2)cc1	-4.4%	i	/
Cc1ccc(S(=O)(=O)N(C)CC(=O)OCc2nnc(-c3ccccc3)o2)cc1	6.6%	i	-0.05
CCN(CCCNC(=O)CCNC(=O)Cn1ccc2ccccc2c1=O)c1ccccc1	-0.8%	i	0.64
CCCc1nnc(SCC(=O)N2CCCCC2)n1CC1CCCO1 (stereo not given)	-0.5%	i	/
COc1ccc(CNC(=O)C2CC(c3ccc(F)cc3)=NO2)cc1 (stereo not given)	4.0%	i	0.57
Cc1ccc(-c2nn(CC(=O)O)c(=O)c3ccccc23)cc1	-1.9%	i	-0.88
CCCn1c2c(c(O)c(C(=O)Nc3ccc(OC)cc3)c1=O)CCCC2	-0.9%	i	-1.4
Cc1sc(NC(=O)c2ccc(Br)s2)c(C(N)=O)c1C	-1.4%	i	/
CCOC(=O)c1ccc(Nc2cc(C)nc3ncnn23)cc1	4.1%	i	-1.3
CC(=O)Nc1ccc(NS(=O)(=O)C(F)(F)F)cc1	2.6%	i	-0.33
COc1ccc(C2CC2/C(C)=N/OC(=O)c2cccs2)cc1 (stereo not given)	0.7%	i	/
CN1CCN(c2ncccc2S(=O)(=O)N2CCCCC2)CC1	2.6%	i	/
Cc1cc(NC(=O)C2COc3ccccc3O2)no1 (stereo not given)	3.9%	i	-0.63
Cc1ccc2nc(NC3=NCN(Cc4cccnc4)CN3)nc(C)c2c1	6.5%	i	-0.76
CN1C2CCC1CC(OC(=O)c1c[nH]c3ccccc13)C2 (stereo not given)	3.3%	i	2.5
Cc1cc(-c2ccccc2)nc2[nH]n(-c3ccccc3)c(=O)c12	3.2%	i	/
NS(=O)(=O)c1cc2c(cc1Cl)NCNS2(=O)=O	-2.8%	i	-0.27
O=C(Nc1cc2c(cc1Cl)OCCO2)c1ccco1	3.4%	i	/
COc1ccc(CN2CCCC(C(=O)N3CCCC3)C2)cc1 (stereo not given)	-2.3%	i	-0.98
CC(=O)NC1CCN(C(=O)N2CCCC2)CC1	-3.2%	i	-0.91
O=S(=O)(c1ccc(F)cc1)N(CCO)CC(O)Cn1c2ccccc2c2ccccc21 (stereo not given)	1.7%	i	-4.1*
O=C(CCCN1C(=O)c2ccccc2C1=O)Oc1ccc(F)cc1	-3.0%	i	0.58
CCOC(=O)c1cccc(NC(=O)CSc2nnc(COc3ccc(Cl)cc3)o2)c1	5.4%	i	1.8
O=C(NCN1CCc2ccccc2C1)c1ccccc1	3.0%	i	0.12
Cc1ccc(-c2nnc3n2N=C(c2ccc(Br)cc2)CS3)cc1	-0.1%	i	-0.45
COc1cccc(OCc2nnc(SCC(=O)NCc3ccco3)n2C)c1	-5.9%	i	/
O=C(CCSc1ccc(Cl)cc1)N1CCOCC1	3.0%	i	/
COCCn1c(Cc2ccccc2)nnc1SCC(=O)N1CCCCC1C (stereo not given)	-0.7%	i	/
CCNC(=S)NNC(=O)c1cccnc1	0.8%	i	/
CC(=O)NCCc1csc(-c2ccccc2)n1	-6.4%	i	-0.38
CCOc1nc(C#N)nc(N2CCCCC2)n1	-6.4%	i	2.6
CCOC(=O)N1CCN(C(=O)c2csc3c2CCCCC3)CC1	-6.2%	i	-0.14
Cc1cccc(Cn2c(=O)c3c(nc4n3CCCN4Cc3ccccc3)n(C)c2=O)c1	-3.1%	i	-0.83
CCOC(=O)c1c(C)sc2c1N(C(=O)CCl)c1cc(Cl)ccc1S2	1.6%	+	/
COCCNC(=O)Cn1ncc2ccsc2c1=O	0.4%	i	3.1
Cc1ccccc1C(=O)Nc1c(C(=O)N2CCCC2)cnn1-c1ccccc1	0.7%	i	1.1
CCCCc1nnc(NC(=O)CSc2nc(C)cc(=O)[nH]2)s1	0.4%	i	/
O=C(NCCCNC1CCCCC1)c1ccc(/C=N/O)nc1	1.8%	i	-0.67
Cc1cc(NC(=O)CSc2n[nH]c(-c3cccs3)n2)no1	2.6%	i	/
CN(NC(=O)C(C)(C)C)c1nc(-c2ccccc2)nnc1C(F)(F)F	4.5%	i	/

Some values from the list:
In WNV protease inh, `CCOc1ccccc1NC(=O)C1CCCN1C(=O)OCc1ccccc1` (stereo not given) shows 0.04
In Hsc70 ATP site, `CCNC(=S)NNC(=O)c1cccnc1` shows 0.8%
In Hsc70 ATP site, `COc1cccc(OCc2nnc(SCC(=O)NCc3ccco3)n2C)c1` shows -5.9%
In WNV protease inh, `Cc1cc(NC(=O)C2COc3ccccc3O2)no1` (stereo not given) shows -0.63
In Hsc70 ATP site, `CC(=O)NC1CCN(C(=O)N2CCCC2)CC1` shows -3.2%
In WNV protease inh, `O=C(NCCCNC1CCCCC1)c1ccc(/C=N/O)nc1` shows -0.67
In Hsc70 ATP site, `Cc1ccc2nc(NC3=NCN(Cc4cccnc4)CN3)nc(C)c2c1` shows 6.5%

Further structures.
SMILES	Hsc70 ATP site	MT1-MMP promoter	WNV protease inh
CCOC(=O)c1c(NC(C)=O)sc2c(OC)c(Br)ccc12	3.2%	i	/
CC(C)OC(=O)C(C#N)c1nc2ccccc2nc1N1CCCC1 (stereo not given)	-110%	i	1.1
CC(Sc1nc2ccccc2c(=O)[nH]1)C(=O)O (stereo not given)	1.3%	i	/
CCOc1ccc(C2C(C#N)=C(N)Oc3cc(C)n(CCN(C)C)c(=O)c32)cc1OCC (stereo not given)	-3.0%	i	-0.16
O=C(CSc1nnc(-c2ccc(Cl)cc2)n1Cc1ccco1)Nc1ccc2c(c1)OCCO2	-4.2%	i	1.4
COc1ccc(-c2nnn(CC(=O)N(Cc3cccs3)C(C)C(=O)NC3CCCC3)n2)cc1OC (stereo not given)	-0.9%	i	-0.16
CC1CCN(S(=O)(=O)c2cc(Br)cc(C(=O)NC3=NCCS3)c2)CC1	0.5%	i	-0.49
COc1ccccc1NS(=O)(=O)c1cccc(C(=O)OCC(=O)Nc2cc(C)on2)c1	6.2%	i	/
CCC(c1nnnn1CCc1ccccc1)N(Cc1ccco1)Cc1cc2c(C)ccc(C)c2[nH]c1=O (stereo not given)	-4.1%	i	0.53
O=S(=O)(c1ccc2ccccc2c1)N1CCCCC1	3.7%	i	0.06
CCCCNC(=O)C1(c2ccc(OC)cc2)CCOCC1	-4.0%	i	/
CC1CCN(CCCNC(=O)CN2CCN(Cc3ccc(Cl)cc3)C2=O)CC1	0.2%	i	0.31

Given in markdown: three of the compounds above
| molecule | Hsc70 ATP site | MT1-MMP promoter | WNV protease inh |
| --- | --- | --- | --- |
| COc1ccccc1NS(=O)(=O)c1cccc(C(=O)OCC(=O)Nc2cc(C)on2)c1 | 6.2% | i | / |
| CCC(c1nnnn1CCc1ccccc1)N(Cc1ccco1)Cc1cc2c(C)ccc(C)c2[nH]c1=O (stereo not given) | -4.1% | i | 0.53 |
| O=S(=O)(c1ccc2ccccc2c1)N1CCCCC1 | 3.7% | i | 0.06 |

The results go on:
SMILES	Hsc70 ATP site	MT1-MMP promoter	WNV protease inh
Cn1c(SCC(=O)OC2CCCCC2)nnc1-c1ccc(S(=O)(=O)N2CCCC2)cc1	-1.2%	i	0.01
Cc1cc(CNC(=O)Nc2ccc3c(c2)OCO3)nn1C	-0.3%	i	0.7
O=C(Nc1ccccc1)c1cccnc1N1CCOCC1	4.8%	i	0.77
O=C(Nc1ccccc1[N+](=O)[O-])C1=C(O)CCn2c1nc1ccccc12	-0.9%	i	/
CCN(Cc1cc2ccccc2[nH]c1=O)S(=O)(=O)c1ccccc1	-3.2%	i	-0.03
COC(=O)CSc1nc2c(c(-c3ccc(C)o3)c1C#N)CCCC2	-1.2%	i	0.12
N#Cc1c(SCC(=O)OCc2ccccc2)nsc1SCC(=O)OCc1ccccc1	3.9%	i	/
COc1cc2c(cc1OC)C(C(=O)N1CCOCC1)C(c1cccs1)N(C)C2=O (stereo not given)	1.9%	i	0.54
Oc1ccc(N2CCN(C(c3ccncc3)c3nnnn3C3CCCC3)CC2)cc1 (stereo not given)	-2.6%	i	0.9
CNc1nnc(-c2ccc(N(C)C)cc2)s1	-3.0%	5.1µM*	/
COc1cccc2[nH]c3c(N4CCC(C(N)=O)CC4)ncnc3c12	1.4%	i	0.01
Cc1ccc(C(c2nnnn2Cc2cccs2)N2CCN(Cc3ccc4c(c3)OCO4)CC2)cc1 (stereo not given)	-4.6%	i	0.41
CCCc1nnc(SCC(=O)N2CCOCC2)n1CCCOC	-6.6%	i	0.4
CCn1c(CNc2ccc(Cl)cc2)nnc1SCC(=O)NCc1ccccc1	-3.1%	i	-0.26
Cc1ccc(NC(=O)NC(=O)CN2C(=O)NC3(CCCCCCC3)C2=O)c(C)c1	-3.1%	i	-0.08
CSc1nc2nc(C)cc(-c3ccccc3)n2n1	-2.9%	i	1
N#CCSc1nnc(C2CCCCC2)n1-c1ccccc1	-3.6%	i	0.26
Cc1nn2c(-c3cccc(NC(=O)CN4CCOCC4)c3)nnc2c2ccccc12	5.3%	i	-0.5
Cc1ccc(C2=[N+]([O-])C3(CCCCC3=O)N(O)C2(C)C)cc1 (stereo not given)	3.6%	i	/
O=C(O)CN1C(=O)c2cccc(Oc3ccc(Cl)cc3)c2C1=O	-2.4%	i	-0.17
CC1(C(=O)N(CC(=O)NC2CCCC2)C2CCCC2)CC(=O)N=C2C=CC=CN21 (stereo not given)	1.2%	i	-0.13
Cn1c(C(=O)N2CCc3ccccc3C2)cc2c(=O)n3ccccc3nc21	4.5%	i	3
OC1C=CSc2nc3ccccc3n21 (stereo not given)	5.4%	i	-0.59
Cc1ccccc1-c1noc(N)c1C#N	-14%	i	-0.65
CCCCNC(=O)CN1C(=O)NC2(CCCc3ccccc32)C1=O (stereo not given)	4.6%	i	/
Cn1c(Cn2nnc3ccccc32)nnc1SCC(=O)c1ccc(F)cc1	-1.0%	i	0.04

Source: PubChem
